Compound activity as filed in PubChem BioAssay.
Ecoli rRNA inh – inhibits bacterial ribosomal RNA function over humanized ribosomes; E. coli WT GFP vs humanized-ribosome RFP mutants, fluorescence, 24 h; hits give low values; DMSO median 0, no signal -100; GFP signal change (wild-type ribosome), % (test concentration not listed); actives 1.6% (n = 350,000); AID 720706;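 active = significant combined selectivity score with lowered wild-type GFP, culture density cut under 30%, mutant RFP and density less affected; inactive = any of these conditions unmet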; also: one replicate is shown; some compounds called inactive have numbers as strong as hits
FGF22 binding – binders of recombinant human FGF22 by thermal shift; SYPRO orange fluorescence; percent of sucrose octasulfate shift, DMSO zero; calls only at 9.99 µM; actives 1.5% (n = 340,000);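 active = melting point raised past a set limit in the mean and every replicate; inconclusive = no clear call; three in four hits are not shown here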
MLL AF4-AF9 inh – inhibitors of human MLL-AF4/AF9 interaction. actives 0.47% (n = 350,000). inhibition, % at 10 µM. AID 651704. AlphaScreen, biotin-AF4 peptide binding to FLAG-AF9;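 active = every replicate reaching a set inhibition limit, whatever the replicate mean, cut at about 25% in these data; inconclusive = mean inhibition reaches that limit but some replicates miss it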;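 also: 0% = plate neutral control median and 100% = total signal loss; the record names both 10 and 1 µM as test concentration; the first replicate is given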
Target sequence (P42568 whole entry, looked up): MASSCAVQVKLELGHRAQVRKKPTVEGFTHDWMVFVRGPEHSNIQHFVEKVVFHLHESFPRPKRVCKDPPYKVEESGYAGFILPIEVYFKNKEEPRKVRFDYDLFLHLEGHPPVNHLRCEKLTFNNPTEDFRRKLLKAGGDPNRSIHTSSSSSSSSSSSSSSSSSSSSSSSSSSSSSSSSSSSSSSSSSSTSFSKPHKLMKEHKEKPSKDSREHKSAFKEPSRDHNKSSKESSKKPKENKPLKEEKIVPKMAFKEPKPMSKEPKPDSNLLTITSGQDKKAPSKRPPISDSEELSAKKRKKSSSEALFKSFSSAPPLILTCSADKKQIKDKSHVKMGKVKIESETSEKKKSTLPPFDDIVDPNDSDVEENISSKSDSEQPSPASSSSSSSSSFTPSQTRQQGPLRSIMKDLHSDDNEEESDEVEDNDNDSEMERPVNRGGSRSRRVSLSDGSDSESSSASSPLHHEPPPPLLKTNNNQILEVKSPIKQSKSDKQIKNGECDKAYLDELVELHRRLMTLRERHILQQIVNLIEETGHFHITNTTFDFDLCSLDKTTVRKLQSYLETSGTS
HNF4A DNA FP – change in binding of human HNF4 alpha to DNA | actives 0.3% (n = 360,000) | P41235 | HNF4a-FITC DNA binding, fluorescence polarization, 1 h | activity change, % at 10 µM | AID 1224865; in the data active = activity change above about 30%, passing the limit was not always enough;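 also: controls were the assay level and a saturating level of protein; the project sought stronger binding though the title names inhibitors; some compounds called inactive have numbers as strong as hits; positive values seem to mean higher polarization but the record does not say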
Target sequence (P41235 whole entry, looked up): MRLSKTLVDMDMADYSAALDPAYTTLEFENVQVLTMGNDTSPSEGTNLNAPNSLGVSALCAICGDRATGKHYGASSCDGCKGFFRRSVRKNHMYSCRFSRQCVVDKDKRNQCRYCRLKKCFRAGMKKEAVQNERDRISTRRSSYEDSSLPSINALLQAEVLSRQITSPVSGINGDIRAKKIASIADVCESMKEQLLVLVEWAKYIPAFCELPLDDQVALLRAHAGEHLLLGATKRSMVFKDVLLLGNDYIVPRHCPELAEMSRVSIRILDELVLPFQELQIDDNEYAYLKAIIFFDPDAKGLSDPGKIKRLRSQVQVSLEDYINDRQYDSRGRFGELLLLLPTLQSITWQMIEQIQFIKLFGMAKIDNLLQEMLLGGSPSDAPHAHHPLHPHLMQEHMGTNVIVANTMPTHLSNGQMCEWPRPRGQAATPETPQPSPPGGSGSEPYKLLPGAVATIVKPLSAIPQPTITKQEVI
E coli growth – inhibitors of Escherichia coli growth; AID 1053175; actives 0.21% (n = 330,000); OD600 absorbance (no concentration beside the values); OD600, 23 h; hits give low values;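 active = OD600 absorbance below the run mean of sample wells minus 3.6 SD, in any replicate, cut at about 0.56 in these data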;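 also: stock transfer was 300 nL into about 60 µL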
ALR H2O2 inh – inhibitors of human sulfhydryl oxidase ALR. P55789. purified ALR, DTT oxidation, H2O2 HRP-luminol luminescence. AID 485317. inhibition, % (concentration not given with the values). actives 3.8% (n = 290,000);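 active = mean and each replicate at 75% or more; inconclusive = only one of the two met; inactive = neither met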;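 also: stock transfer was 7.5 nL into about 7.5 µL; 0% = neutral wells and 100% = wells with inactivated enzyme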
Vif TR-FRET – inhibitors of Vif binding to APOBEC3G peptide, primary screen, biochemical, TR-FRET, GST-Vif 1-94, biotin-A3G peptide, dose response retest (AID 1117319). inhibition, %, or IC50 in µM where a hit was titrated. TR-FRET GST-Vif / biotin-A3G peptide binding; higher % means a stronger effect; test concentration not given here; strong numbers were not always called active. actives 0.57% (n = 260,000);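 active = above the screen mean plus three standard deviations and confirmed in dose response; inconclusive = results disagree or hit not tested in dose response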;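 also: Vif residues 1-94 fused to GST binding biotinylated APOBEC3G peptide 110-148; 0% = full assay without inhibitor and 100% = GST in place of GST-Vif; retest series ran down from 100 µM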
Ecoli rRNA inh OD600 – also measured in Ecoli rRNA inh; calls as there; OD600 change, %; measured here: OD600 growth;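 optical density of the mix in the first replicate; 0 = DMSO median and -100 = no signal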
Ecoli rRNA inh RFP – further read-out of Ecoli rRNA inh, marked with its call; RFP signal change, %; measured here: RFP humanized mutant strains;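 first replicate; 0 = DMSO median and -100 = no signal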
* = called active by the depositor; i = inactive; ? = inconclusive; . = no result given.

nr	SMILES	Ecoli rRNA inh	Ecoli rRNA inh OD600	Ecoli rRNA inh RFP	FGF22 binding	MLL AF4-AF9 inh	HNF4A DNA FP	E coli growth	ALR H2O2 inh	Vif TR-FRET
1	CCOc1ccccc1NC(=O)C(CC)Sc1nc2ccncc2[nH]1 (centres undefined)	-7	0	-2.9	i	-0.5	0.7	0.7	-2	.
2	Cc1ccccc1-c1nc(C(=O)NCC2CCCO2)cc2c1[nH]c1ccccc12 (centres undefined)	-21	-42	-17	i	3.2	-4.5	0.81	-2	.
3	CCC(C)NC(=O)CC(NS(=O)(=O)c1ccc(Cl)cc1)c1ccco1 (centres undefined)	.	.	.	.	.	2.5	0.71	-3	4%
4	CN(C)C(=O)COc1ccc2c3c(c(=O)oc2c1)CCCC3	-10	-12	2.3	i	-7.9	-3.0	0.66	-1	0%
5	COc1ccc(C)cc1NC(=O)C(c1ccccc1)N1CCNC(=O)C1 (centres undefined)	.	.	.	.	.	-0.8	0.7	-3	-4%
6	CC(NC(=O)c1ccccc1NC(=O)CSc1nnnn1C)c1ccccc1 (centres undefined)	.	.	.	.	.	1.9	0.79	5	-2%
7	O=C(O)c1ccc(-n2cccn2)c([N+](=O)[O-])c1	13	11	-1.7	i	-0.5	-1.8	0.7	-9	4%
8	CCOC(=O)N1CCN(C(=O)c2ccc3nc(N4CCC(C)CC4)sc3c2)CC1	.	.	.	.	.	-1.3	0.74	5	3%
9	Cc1cc2c(cc1C)CSC(c1ccccc1OC(=O)C(C)C)SC2	.	.	.	.	.	0.2	0.76	-12	19%
10	N/C(=N\OC(=O)Cc1ccc([N+](=O)[O-])cc1)c1ccccn1	6	11	-1.1	.	3.0	2.8	.	.	-2%

Profiles, looked up by structure.
CN(C)C(=O)COc1ccc2c3c(c(=O)oc2c1)CCCC3 in the list: Ecoli rRNA inh = -10; Ecoli rRNA inh OD600 = -12; Ecoli rRNA inh RFP = 2.3; FGF22 binding = i; MLL AF4-AF9 inh = -7.9; HNF4A DNA FP = -3.0; E coli growth = 0.66; ALR H2O2 inh = -1; Vif TR-FRET = 0%
Cc1cc2c(cc1C)CSC(c1ccccc1OC(=O)C(C)C)SC2 in the list: Ecoli rRNA inh = .; Ecoli rRNA inh OD600 = .; Ecoli rRNA inh RFP = .; FGF22 binding = .; MLL AF4-AF9 inh = .; HNF4A DNA FP = 0.2; E coli growth = 0.76; ALR H2O2 inh = -12; Vif TR-FRET = 19%

Following part:
nr	SMILES	Ecoli rRNA inh	Ecoli rRNA inh OD600	Ecoli rRNA inh RFP	FGF22 binding	MLL AF4-AF9 inh	HNF4A DNA FP	E coli growth	ALR H2O2 inh	Vif TR-FRET
11	Cc1noc(C)c1NC(=O)N(C)C[C@H]1Oc2c(NC(=O)c3nc4ccccc4s3)cccc2C(=O)N([C@H](C)CO)C[C@H]1C	-1	-2	0.6	i	4.1	.	.	.	.
12	CCCCN(CCCC)Cc1cc(=O)oc2cc(C)cc(C)c12	0	0	-7.2	i	-4.1	-0.7	.	.	.
13	Cc1nn(-c2ccccc2)c(C)c1NC(=O)COc1ccc(Cl)cc1Cl	.	.	.	.	.	0.6	0.71	2	-9%
14	CCC(C)n1c(/C=C/c2ccccc2)nc2ccccc21 (centres undefined)	-50	-73	-9.8	i	14	1.7	0.65	-9	17%
15	CN1CCCCN2[C@@H](CO)[C@@H](c3ccc(-c4cccnc4)cc3)[C@@H]2C1	3	9	-0.6	i	3.9	.	.	.	.
16	COc1ccc(-c2ccc(CN3C(C)C(=O)N(Cc4cn(CCC5OCCCO5)nn4)CCS3(=O)=O)cc2)cc1 (centres undefined)	-12	-18	0.3	i	1.4	0.6	.	.	.
17	Cc1ccc(S(=O)(=O)N(C)C[C@H]2Oc3c(NC(=O)Nc4ccc5c(c4)OCO5)cccc3C(=O)N([C@H](C)CO)C[C@H]2C)cc1	-9	-14	-0.9	i	-6.7	.	.	.	.
18	CC(C)(CNC(=O)c1cc(Cl)c(O)c(Cl)c1)N1CCCCC1	7	2	-1.8	i	-3.1	0.1	0.62	.	.
19	C[C@@H]1CN([C@H](C)CO)C(=O)c2cc(NC(=O)Nc3cccc4ccccc34)ccc2O[C@@H]1CN(C)Cc1ccc(C(F)(F)F)cc1	3	1	-1.6	i	0.0	.	.	.	.
20	Cc1ncoc1C(=O)N1CCCC(C(=O)c2ccc(-c3ccccc3)c(F)c2)C1 (centres undefined)	-25	-24	-0.6	i	-0.3	3.2	0.68	.	-2%
21	CCCCN(C(=O)c1ccc(NC2CC2)c([N+](=O)[O-])c1)c1c(N)n(CCCC)c(=O)[nH]c1=O	-2	-2	4.0	i	1.0	4.9	0.69	.	-8%
22	Cc1ccc(C)c(NC(=S)N(CCc2nc3cc(C)c(C)cc3[nH]2)Cc2cccnc2)c1	.	.	.	.	.	-1.1	0.74	-5	6%
23	Cc1ccc(C(=O)O/N=C(\N)c2ccc(C(F)(F)F)cn2)cc1	7	15	-0.3	i	-2.1	1.9	.	.	-2%
24	C[C@H](CO)N1C[C@H](C)[C@H](CN(C)C(=O)Nc2ccc3c(c2)OCO3)Oc2ncccc2C1=O	5	2	-5.5	i	-6.5	.	.	.	.
25	CS(=O)c1ccccc1-c1nc(-c2cc(C(F)(F)F)cc(C(F)(F)F)c2)no1 (centres undefined)	.	.	.	.	.	-0.6	0.69	5	-5%
26	C[C@@H]1CCCCO[C@@H](CN(C)Cc2ccc(C(=O)O)cc2)[C@H](C)CN([C@@H](C)CO)C(=O)c2cc(NC(=O)Nc3ccccc3)ccc2O1	-1	5	0.4	i	-5.4	.	.	.	.
27	C=CCN(CC=C)Cc1cc(=O)oc2cc(OC)ccc12	-1	6	2.4	i	-3.0	1.8	.	.	.
28	C[C@H]1CN([C@@H](C)CO)C(=O)Cc2cc(NC(=O)c3ccncc3)ccc2O[C@H]1CN(C)CC1CC1	2	8	0.4	i	-0.7	.	.	.	.
29	C[C@H](NS(=O)(=O)c1ccccc1F)C(=O)OCC(=O)Nc1ccc2c(c1)OCCO2	2	1	0.1	i	-3.5	0.5	0.71	-2	-3%
30	Cc1ccccc1S(=O)(=O)NC(=O)C1(C)CCN1C(=O)c1cccc2ccccc12 (centres undefined)	-3	6	-7.8	i	-2.6	7.0	.	.	.
31	O=C(NNC(=S)Nc1ccccc1)c1cccs1	.	.	.	.	.	-0.8	0.65	31	7%
32	CN1C(=O)c2cc(NC(=O)C3CCOCC3)ccc2OC[C@H]2O[C@H](CC(=O)NC3CCCC3)CC[C@@H]21	4	2	0.0	i	-0.9	.	.	.	.
33	CCC(C)N(C)C(=O)c1cc2ccccc2c(-c2ccccc2Cl)n1 (centres undefined)	-46	-62	-12	i	0.1	0.9	0.66	.	-5%
34	O=C(c1csc2ccccc12)N1CCCCCC1	.	.	.	.	.	1.3	0.72	.	13%
35	Cc1ccccc1N1CCN(C2CCCN(C(=O)c3cn4cccc(C)c4n3)C2)CC1 (centres undefined)	0	0	4.1	i	3.3	-1.5	0.7	.	.
36	COC(=O)C1=C(C)NC2=C(C1c1ccc(O)cc1)S(=O)(=O)c1ccccc12 (centres undefined)	.	.	.	.	.	-1.9	0.71	-3	2%
37	CC(Oc1ccc(F)cc1F)C(=O)NNC(=S)NCC1CCCO1 (centres undefined)	1	9	-1.1	i	-1.8	1.8	0.69	14	.
38	Cc1c(NC(=S)NC(=O)c2cccc([N+](=O)[O-])c2)c(=O)n(-c2ccccc2)n1C	0	9	0.4	i	-1.6	-0.2	0.66	-3	.
39	CN(C(=O)CN(c1ccccc1)S(=O)(=O)c1ccc(F)cc1)C1CCS(=O)(=O)C1 (centres undefined)	11	3	-0.3	i	1.2	-2.5	0.67	1	-3%
40	CC(=O)c1ccc(OCC(=O)OCC(=O)Nc2sccc2C(N)=O)cc1	.	.	.	i	-4.0	-3.1	0.69	-1	?

Part of the list above, with values under each structure.
The line under a structure holds: Ecoli rRNA inh	Ecoli rRNA inh OD600	Ecoli rRNA inh RFP	FGF22 binding	MLL AF4-AF9 inh	HNF4A DNA FP	E coli growth	ALR H2O2 inh	Vif TR-FRET
37	CC(Oc1ccc(F)cc1F)C(=O)NNC(=S)NCC1CCCO1 (centres undefined)
    1	9	-1.1	i	-1.8	1.8	0.69	14	.
38	Cc1c(NC(=S)NC(=O)c2cccc([N+](=O)[O-])c2)c(=O)n(-c2ccccc2)n1C
    0	9	0.4	i	-1.6	-0.2	0.66	-3	.

Further records:
nr	SMILES	Ecoli rRNA inh	Ecoli rRNA inh OD600	Ecoli rRNA inh RFP	FGF22 binding	MLL AF4-AF9 inh	HNF4A DNA FP	E coli growth	ALR H2O2 inh	Vif TR-FRET
41	CC(=O)OC1CCC2C3CCC4OC(=O)CCC4C3CCC12C (centres undefined)	-33	-58	-1.7	i	0.6	0.0	0.68	.	-7%
42	Cc1ccc2cccc(NS(=O)(=O)c3ccccc3)c2n1	28	20	1.9	i	-6.9	.	.	-2	.
43	CCNC(=O)Nc1ccc2c(c1)C(=O)N(C)[C@@H]1CC[C@@H](CC(=O)NCC3CCCCC3)O[C@H]1CO2	0	-4	-2.0	i	-7.6	.	.	.	.
44	O=C1Nc2ccc([N+](=O)[O-])cc2OC1CCN1CCOCC1 (centres undefined)	9	4	-0.1	i	3.0	-3.3	0.68	.	-4%
45	Cc1ccc(Nc2nc(/N=C/NO)n[nH]2)cc1C	12	9	0.8	i	-3.4	-1.5	.	61	2%
46	C/C=C/c1ccc2c(c1)O[C@H](CN(C)C(=O)c1ccccc1)[C@@H](C)CN([C@H](C)CO)S2(=O)=O	0	5	-2.4	i	0.0	.	.	.	.
47	CCCN1CCN(S(=O)(=O)c2ccc(OC)c(Br)c2)CC1	.	.	.	.	.	5.2	0.65	.	-1%
48	CCOc1ccc(C2C(C(=O)c3ccco3)=C(O)C(=O)N2CCN2CCOCC2)cc1OCC (centres undefined)	-5	0	-0.8	i	-1.3	0.8	0.69	3	.
49	CCC(C(=O)Nc1ccccc1C(=O)N1CCOCC1)N1C(=O)c2ccccc2C1=O (centres undefined)	.	.	.	.	.	5.0	0.74	-1	-10%
50	CC(=O)Nc1ccc(SC[C@H](Cc2ccccc2)N2CCN(CCc3ccccc3)CCC2=O)cc1	-40	-68	-6.2	i	4.5	2.1	.	.	.
51	CN(C(=O)COC(=O)C1CCN(S(=O)(=O)c2ccc3c(c2)OCCO3)CC1)C1CCCCC1	-12	-12	0.9	i	-4.5	3.5	0.68	-18	3%
52	CC(C)C(=O)Nc1cccc(C(=O)Nc2ccc(S(=O)(=O)Nc3nccs3)cc2)c1	3	5	2.0	i	0.8	0.0	0.68	5	.
53	CCOc1ccc(NC(=O)c2cc(=O)[nH]c3ccccc23)cc1	15	5	1.1	i	5.7	4.7	0.65	-9	.
54	CC(=O)N/C(=C\c1ccccc1)C(=O)OCC(=O)Nc1cc(S(=O)(=O)N(C)C)ccc1Cl	1	-3	-1.2	i	2.7	-3.2	0.6	.	-2%
55	COc1ccc(Nc2nc3ccccc3n3nnnc23)cc1	.	.	.	.	.	-6.9	0.63	-2	2%
56	Cc1ccc(NC(=O)Cc2nnc(SCC(=O)NC3=NCCS3)n2C)cc1	4	5	-0.4	i	-21	2.0	0.66	1	.
57	O=S(=O)(c1ccccc1)N1CC[C@@H]2[C@H](CO)Nc3ccc(Br)cc3[C@@H]21	-42*	-33*	-1.8*	i	1.8	.	.	.	.
58	Cc1ccc(NC(=S)NCC2CCCO2)cc1C (centres undefined)	.	.	.	.	.	-1.3	0.69	6	-1%
59	CO[C@H]1CN(C)C(=O)c2cc(NC(C)=O)ccc2OC[C@@H](C)N(Cc2cc(F)ccc2F)C[C@@H]1C	0	-24	5.6	i	5.5	.	.	.	.

Not all compounds are listed. The share of hits here may be higher or lower than overall.
